# Calb FLC – C. albicans growth inhibition with fluconazole, primary screen, CaCi-2 strain, Alamar Blue fluorescence; growth inhibition, % (test concentration not listed); hit rate 0.57% among 300,000; C. albicans CaCi-2 (fluconazole-resistant clinical isolate) + fluconazole, 48 h; AID 1979, 2009;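 active = most replicates above 75%; inconclusive = exactly half above 75%; inactive = most below 75%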;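 note: all wells also contain fluconazole at 8 µg/ml as a sub-toxic cotreatment; 0% = median of DMSO wells and 100% = median of geldanamycin control wells; wells of about 8 µL received 7.5 nL stock; the first replicate is given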
# LANA-H2A inh – blockers of LANA interaction with H2A/H2B – biochemical, FP readout, HTS, primary screen. Protein LANA1 (Human herpesvirus 8 type P (isolate GK18)), Q9QR71. hit rate 0.6% among 320,000. inhibition, % (concentration not given with the values). AID 2629, 2010. cell-free LANA-H2A/H2B peptide, fluorescence polarization; in the data active = inhibition mostly above about 10%, no sharp cut-off; inactive = mostly below about 6.7%;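 note: stock transfer was 7.5 nL into about 10 µL; 0% = median of vehicle wells and 100% = median of positive control wells; one replicate is shown; the record names a cut of 25% in any replicate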
# Beta cell apopt – inhibitors of cytokine-induced beta cell apoptosis, primary screen, luminescence | AID 435005, 2010 | INS-1E cytokine-induced death, ATP luminescence, 48 h; percent of positive-control rescue, neutral wells zero | protection from apoptosis, % (test concentration not listed) | hit rate 0.8% among 300,000;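 active = all replicates at 75% or more, or half of them and the mean; inconclusive = half reach 75% but not the mean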;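 note: 0% = cytokine-treated negative control wells and 100% = positive control rescue; higher means more ATP so stronger rescue from cytokine killing; wells of about 40 µL received 100 nL stock; the first replicate is given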
# A1 inh – caspase 3/7 activation in MEF A1-2A-BIM cells, primary screen, A1 inhibitor project, cell-based, luminescence, HTS; Caspase-Glo 3/7 luminescence, 3 h; percent of clofoctol response, vehicle zero; caspase activation, % (concentration not given with the values); hit rate 0.066% among 330,000; AID 2462, 2010;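 active = over half of replicate activation scores above 10%, or exactly half above 10 with the replicate mean above 10; inconclusive = replicate mean below 10 yet half the replicates above 10; inactive = over half of replicates below 10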;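 note: wells of about 30 µL received 50 nL stock; many hits fall short of the cut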
# T cruzi repl – inhibitors of intracellular T. cruzi growth, primary screen, luminescence, NIH3T3 host cells | T. cruzi beta-gal in NIH3T3, 90 h | inhibition, % (concentration not given with the values) | hit rate 1.4% among 300,000;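 active = mean inhibition across valid replicates above about 55%, limit read from the data; inconclusive = mean below that limit but half or more replicates reach it; inactive = mean below it, under half of replicates reach it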;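 note: signal also drops with host cell toxicity which is not excluded here; 0% = plate median of DMSO wells and 100% = zero luminescence signal; higher percent means less beta-gal luminescence so fewer parasites; stock transfer was 50 nL into about 50 µL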
# Ecoli rRNA inh – reduced GFP signal of wild-type E. coli, primary screen, bacterial rRNA inhibitor project, GFP/RFP fluorescence, OD600, single point. hit rate 1.6% among 350,000. GFP signal change (wild-type ribosome), % (concentration not given with the values). E. coli WT GFP vs humanized-ribosome RFP mutants, 24 h; stronger effect = lower value; DMSO median 0, no signal -100;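 active = significant combined selectivity score with lowered wild-type GFP, culture density cut under 30%, mutant RFP and density less affected; inactive = any of these conditions unmet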; note: one replicate is shown; some compounds called inactive have numbers as strong as hits
# ALR H2O2 inh – inhibitors of human ALR sulfhydryl oxidase, primary screen, biochemical, H2O2 detection, HRP-luminol luminescence, single point; FAD-linked sulfhydryl oxidase ALR (Homo sapiens), P55789; purified ALR, DTT oxidation; inhibition, % (concentration not given with the values); hit rate 3.8% among 290,000;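 active = mean and each replicate at 75% or more; inconclusive = only one of the two met; inactive = neither met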;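 note: stock transfer was 7.5 nL into about 7.5 µL; 0% = neutral wells and 100% = wells with inactivated enzyme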
# Target sequence (P55789 whole entry, looked up): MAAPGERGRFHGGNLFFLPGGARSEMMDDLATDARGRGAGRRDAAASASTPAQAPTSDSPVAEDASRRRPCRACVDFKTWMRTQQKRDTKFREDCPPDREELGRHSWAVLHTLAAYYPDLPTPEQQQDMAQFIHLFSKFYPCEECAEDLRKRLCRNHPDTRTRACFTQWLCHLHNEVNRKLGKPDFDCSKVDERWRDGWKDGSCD
# Beta2AR agonist – beta2AR agonists driving receptor internalization, primary screen, cell-based, FAP fluorogen, flow cytometry | Am2.2-beta2AR cells; reference of the scale not given here | response, % (test concentration not listed) | hit rate 0.43% among 340,000 | AID 504454, 2011;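 active = response above a set limit, near 3 SD of response in nonfluorescent compounds, cut at about 42% in these data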;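 note: stock transfer was 100 nL into about 11 µL; a reference agonist was the positive control; negative values mostly stem from fluorescent compounds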
# Target sequence (P07550 whole entry, looked up): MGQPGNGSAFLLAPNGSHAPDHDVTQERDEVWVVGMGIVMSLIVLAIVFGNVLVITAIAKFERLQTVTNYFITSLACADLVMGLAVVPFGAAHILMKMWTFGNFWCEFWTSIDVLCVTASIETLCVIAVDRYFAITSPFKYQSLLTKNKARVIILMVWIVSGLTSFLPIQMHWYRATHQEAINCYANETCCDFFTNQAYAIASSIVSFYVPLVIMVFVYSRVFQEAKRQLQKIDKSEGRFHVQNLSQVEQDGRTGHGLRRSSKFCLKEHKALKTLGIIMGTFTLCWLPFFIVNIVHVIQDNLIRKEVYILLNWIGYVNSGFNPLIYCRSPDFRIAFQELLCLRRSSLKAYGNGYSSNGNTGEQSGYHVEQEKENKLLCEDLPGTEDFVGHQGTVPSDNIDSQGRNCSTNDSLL
# Ecoli rRNA inh OD600 – second read-out of Ecoli rRNA inh, no call of its own (marks repeat the call); OD600 change, %; measured here: OD600 growth;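 optical density of the mix in the first replicate; 0 = DMSO median and -100 = no signal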
# Ecoli rRNA inh RFP – further read-out of Ecoli rRNA inh, marked with its call; RFP signal change, %; measured here: RFP humanized mutant strains;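 first replicate; 0 = DMSO median and -100 = no signal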
# * hit, by the source's call; ? = inconclusive; / = not tested or not shown. This is a subset; count on the stated rates, not on these rows.
SMILES	Calb FLC	LANA-H2A inh	Beta cell apopt	A1 inh	T cruzi repl	Ecoli rRNA inh	Ecoli rRNA inh OD600	Ecoli rRNA inh RFP	ALR H2O2 inh	Beta2AR agonist
CCN(CC(=O)Nc1ccccc1C(F)(F)F)C(=O)COc1cccc2c1OC(C)(C)C2	4	-2.6	-5	0.1	-5	-6	-10	-4.2	-4	-11
COc1ccc(CCN(C)c2ncnc3sccc23)cc1OC	1	-1.4	-5	0.2	-11	-24	-20	-3.3	-4	-16
Cc1cc(C(=O)NCCc2ccc(Cl)cc2)c(C)o1	-19	-6.9	3	-0.2	-14	3	4	-0.5	67	5
COc1ccc(OC)c(NC(=O)c2nc(-c3ccccc3)oc2C)c1	-6	1.7	-1	1.0	-7	5	3	5.8	/	-10
c1ccc(Nc2nc(-c3ccncc3)cs2)nc1	-2	-2.2	-4	0.3	64*	/	/	/	5	-13
CS(=O)(=O)N(CC(=O)Nc1ccccc1C(=O)N1CCCC1)c1ccc2c(c1)OCO2	2	6.9	-10	0.4	-8	13	8	-0.3	-1	4
CCOC(=O)N1CCN(C(=O)c2cc3c(s2)-c2ccccc2OC3)CC1	10	4.9	-3	0.3	7	-9	-17	-2.9	0	-7
COc1cc(OC)cc(C(=O)Nc2cccc(NC(C)=O)c2)c1	-3	-1.7	4	-1.0	-12	/	/	/	-20	1
COC(=O)CCC(=O)N1CCc2cc(S(=O)(=O)N3CCc4ccccc43)ccc21	-5	-10	0	0.4	-7	/	/	/	2	-1
CCOc1ccc(CC(=O)C2C(=O)CC(C)(C)CC2=O)cc1OCC	-17	-0.3	-6	0.0	0	/	/	/	-6	3
CCn1cc(C(=O)N(C)c2cc(C)ccc2OC)c2cc(OC)c(OC)cc2c1=O	-4	-1.5	5	-2.3	2	2	3	2.6	-14	-8
O=C(NCC(=O)N1CCN(S(=O)(=O)c2cccc(F)c2)CC1)c1ccc(Br)o1	1	/	0	0.1	-3	6	9	1.6	/	1
Nc1nc(NCc2ccccc2Cl)n(-c2ccccc2)n1	3	5.7	3	0.4	-7	-3	10	2.9	60	1
CCOC(=O)N/N=C/c1ccc(C)o1	40	0.2	-8	0.0	-18	/	/	/	-5	-3
c1ccc(-c2cnc(-c3ccccc3)nn2)cc1	-11	0.2	0	-6.0	-13	/	/	/	0	8
CC(O)c1c(-c2ccccc2)nn(C)c1Cl (stereo unspecified)	-19	1.8	-2	-0.3	-13	30	24	2.5	2	1
COc1cc(-c2c(C#N)c(N)nc3[nH]c(=S)[nH]c(=O)c23)ccc1O	-4	5.2	4	0.5	-8	10	16	-0.2	99*	-7
Cc1ccc(S(=O)(=O)C2(C(=O)NCc3ccc4c(c3)OCO4)CC2)cc1	-10	-2.2	/	-0.5	-6	-6	-5	-0.6	-14	8
O=C(NCCCNC(=O)c1cccnc1)c1ccc(Cl)cc1	3	7.2	/	0.1	7	0	2	-0.6	3	-4
CCOc1cccc(CN2CCC(n3nccc3NC(=O)c3ccc4c(c3)OCO4)CC2)c1	-14	1.1	0	-0.4	41	1	8	2.0	-1	1

# Brought forward from above: 6 compounds, then new ones.
SMILES	Calb FLC	LANA-H2A inh	Beta cell apopt	A1 inh	T cruzi repl	Ecoli rRNA inh	Ecoli rRNA inh OD600	Ecoli rRNA inh RFP	ALR H2O2 inh	Beta2AR agonist
c1ccc(-c2cnc(-c3ccccc3)nn2)cc1	-11	0.2	0	-6.0	-13	/	/	/	0	8
CC(O)c1c(-c2ccccc2)nn(C)c1Cl (stereo unspecified)	-19	1.8	-2	-0.3	-13	30	24	2.5	2	1
COc1cc(-c2c(C#N)c(N)nc3[nH]c(=S)[nH]c(=O)c23)ccc1O	-4	5.2	4	0.5	-8	10	16	-0.2	99*	-7
Cc1ccc(S(=O)(=O)C2(C(=O)NCc3ccc4c(c3)OCO4)CC2)cc1	-10	-2.2	/	-0.5	-6	-6	-5	-0.6	-14	8
O=C(NCCCNC(=O)c1cccnc1)c1ccc(Cl)cc1	3	7.2	/	0.1	7	0	2	-0.6	3	-4
CCOc1cccc(CN2CCC(n3nccc3NC(=O)c3ccc4c(c3)OCO4)CC2)c1	-14	1.1	0	-0.4	41	1	8	2.0	-1	1
CCCCn1c(N)c(N(CCC(C)C)C(=O)c2ccc3ccccc3c2)c(=O)[nH]c1=O	/	32*	-1	0.6	/	/	/	/	1	2
CC(C)C(=O)Nc1cccc(C(=O)NCc2ccc(S(N)(=O)=O)cc2)c1	-23	-1.2	-5	/	5	/	/	/	-16	2
CCCCNC(=O)CCn1nc(-c2ccccc2)c2ccccc2c1=O	18	-0.6	/	-1.2	8	/	/	/	0	14
COc1ccc2cc3cc(C(=O)N(C)C4CCCCC4)oc3nc2c1	-4	-0.1	11	0.7	-17	/	/	/	6	16
O=C(Nc1ccccc1C(=O)N1CCCCC1)c1cccs1	-2	-5.4	2	0.0	-17	3	5	1.1	73	-1
O=C(CNc1ccc(F)cc1)c1ccccc1	-21	0.9	0	-3.5	1	6	2	1.3	7	8
Cc1ccc(SCCN2CCN(C)CC2)cc1	-5	3.6	-2	0.6	64*	5	12	-1.9	1	7
CCCCn1c(N)c(N(CCC(C)C)C(=O)c2ccc3c(c2)OCO3)c(=O)[nH]c1=O	/	3.8	-3	1.0	3	15	8	2.5	-3	2
O=C(O)/C(=C\c1cccc(O)c1)c1ccc(S(=O)(=O)N2CCCC2)s1	/	2.6	-6	0.2	/	/	/	/	18	-3
O=C(NCc1ccco1)c1ccc2c(c1)N(Cc1ccccc1)C(=O)CS2	9	-0.3	1	0.4	6	/	/	/	-3	0
COc1ccc(CSc2ncnc3sccc23)cc1F	3	-0.4	-10	-0.8	14	-24	-23	-1.3	-13	-3
CC(C)(C)n1nnnc1C(c1cccc(C#N)c1)N1CCC(Cc2ccccc2)CC1 (stereo unspecified)	9	2.9	12	0.2	81*	9	-1	-1.6	-1	7
Cc1ccc(N2CC(C(=O)Nc3nnc(SCC(=O)Nc4nc(C)cs4)s3)CC2=O)cc1 (stereo unspecified)	-1	9.4	-1	-0.3	-13	20	6	4.5	-6	4
Cc1nc(-c2ccccn2)nc(SCC(=O)c2ccc(F)cc2)c1Cl	17	-0.6	6	-0.2	0	-1	7	1.9	5	-2
CCN(CC)CCCNC(=S)N(CCO)Cc1cc2cc3c(cc2[nH]c1=O)OCO3	2	-0.6	-8	0.0	-5	-4	-6	-3.1	-36	-1
O=C1C(C=NCCCN2CCCC2=O)=C(O)c2ccccc21	0	-1.7	2	-0.6	-2	/	/	/	0	0
Cc1ccc(C)c(S(=O)(=O)NCC(=O)Nc2ccc3c(c2)OCO3)c1	-21	-4.1	-2	0.9	15	5	-2	-1.4	-22	-6
CN(CC(=O)NCc1cccnc1)S(=O)(=O)c1cc(Cl)ccc1Cl	1	/	-3	0.5	-4	5	-2	-0.6	/	-7
CCC1Nc2ncnc(N3CCOCC3)c2N(Cc2ccccc2)C1=O (stereo unspecified)	-1	-12	-7	1.4	-3	11	6	-3.2	10	3
CC1CCN(c2c(NCC3CCC(C(=O)N4CCCC(C)C4)CC3)c(=O)c2=O)CC1 (stereo unspecified)	6	2.8	-3	0.8	3	-1	-7	4.3	14	-6
CCOC(=O)c1ccc(S(=O)(=O)n2c(=O)oc3ccccc32)cc1	/	-0.6	3	-0.2	/	2	-13	-1.1	5	3
Cc1ccc(NC(=O)CNC(=O)OCc2ccccc2)cc1C	-24	1.5	-4	0.0	-10	-3	2	4.3	/	3
Clc1ccc(OCCOCCOc2cccc3cccnc23)c(Br)c1	2	-1.0	0	-0.1	0	-52	-80	-28	1	-22
Cc1ccc(S(=O)(=O)c2nc(-c3ccc(F)cc3)oc2N2CCOCC2)cc1	-29	0.3	-4	-0.7	0	/	/	/	1	-13
CCn1c(SCC(=O)NNC(=O)Cc2ccccc2)nnc1-c1ccncc1	-5	-1.2	-3	-0.5	-17	7	10	0.1	-3	1
Cc1cc(C(=O)N/N=C/c2cccc([N+](=O)[O-])c2O)n[nH]1	?	1.3	-3	0.1	-5	2	-15	-4.6	-10	-1
COC(=O)[C@H]1[C@H](C(=O)OC)[C@@H](C(=O)OC)N(c2ccc(OC)cc2)[C@@H]1C(=O)OC	-9	-0.4	-2	0.5	-14	/	/	/	10	5
O=C(NC1CCCC1)c1ccc(Cl)s1	-2	4.1	0	1.1	4	7	-1	-0.8	-2	4
COc1ccc(N2CCN(C3CCCN(C(=O)CN4CCOC4=O)C3)CC2)cc1 (stereo unspecified)	2	-0.1	5	1.1	7	10	8	-0.1	63	-2
CC(C)(C)NC(=O)NC(=O)COc1ccccn1	0	2.1	-10	1.8	-15	/	/	/	1	6
COc1ccc(S(=O)(=O)N2CCc3ccccc32)cc1C(=O)N1CCN(C=O)CC1	/	6.6	-5	0.3	/	/	/	/	-1	9
CC(=O)NC(=O)NC1CSCC1OC(C)=O (stereo unspecified)	-13	0.1	4	-0.8	-13	/	/	/	-1	3
Cc1ccc(NCC(O)Cn2cnc3c2c(=O)n(C)c(=O)n3C)cc1 (stereo unspecified)	0	-5.1	-1	-1.6	-10	4	3	-2.7	58	8
CCc1nnc(NC(=O)CSc2nnc(C(C)NC(=O)c3ccccc3)n2C)s1 (stereo unspecified)	-6	0.6	-8	-0.3	-1	4	-1	-1.4	-3	6
COc1ccccc1CNC(=O)CC(NS(=O)(=O)c1ccc(C)cc1)c1ccco1 (stereo unspecified)	1	-1.8	0	-0.3	7	/	/	/	-4	5
COc1ccc(NC(=O)C2CCCN2S(=O)(=O)c2ccc3c(c2)CCC(=O)N3)cc1 (stereo unspecified)	-2	-2.3	-1	0.1	10	12	10	3.8	-54	6
O=C1SCCC1NS(=O)(=O)c1ccc([N+](=O)[O-])cc1 (stereo unspecified)	-4	-3.6	-7	-1.8	-1	0	16	0.9	-12	-3
O=C(OC1CCOC1=O)c1ccccc1C(=O)c1ccc(Cl)c([N+](=O)[O-])c1 (stereo unspecified)	/	-12	-10	1.2	/	/	/	/	/	12
